VDR inh: blocks the human vitamin D receptor. AID 504847. 400,000 tested, 0.93% active. P11473. Potency, µM, without a hit: max response, negative = inhibition, actives largely listed as inhibitors. VDR-SRC2-3 peptide fluorescence polarization, 2 h; active = well fitted inhibition curve with a large enough effect; inconclusive = small, poorly fitted or top-dose-only effect, or another doubt; inactive = no such curve, though single readings can be large or run the other way; note: series mostly up to about 120 µM
Target sequence (P11473 whole entry, looked up): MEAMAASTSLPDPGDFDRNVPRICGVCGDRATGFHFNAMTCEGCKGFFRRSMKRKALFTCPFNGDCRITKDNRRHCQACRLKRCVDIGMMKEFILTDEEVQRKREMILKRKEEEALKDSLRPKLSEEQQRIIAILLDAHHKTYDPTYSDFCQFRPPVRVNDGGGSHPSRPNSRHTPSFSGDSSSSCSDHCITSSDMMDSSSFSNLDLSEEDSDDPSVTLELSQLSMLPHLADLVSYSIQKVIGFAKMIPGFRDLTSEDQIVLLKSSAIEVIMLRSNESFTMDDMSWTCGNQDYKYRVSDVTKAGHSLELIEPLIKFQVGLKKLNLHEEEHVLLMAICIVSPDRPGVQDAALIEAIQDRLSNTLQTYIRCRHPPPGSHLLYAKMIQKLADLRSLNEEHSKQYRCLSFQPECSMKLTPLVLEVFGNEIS
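Reagent solutions, kept cold and dark, are dispensed first; compounds are then pinned in at 23 nl, plates briefly spun, and incubated 2 h at ambient temperature. Inhibition of VDR–SRC2-3 peptide binding is read by fluorescence polarization.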
* = called active by the depositor; ? = inconclusive; & = joins results of further samples. % is set by controls: 0 for no effect and ±100 for the full control effect; potency is the fitted concentration of half-maximal effect. This is a subset; rates above refer to the full screens.

SMILES	VDR inh
CC1(C)Cc2c(sc3nc4n(-c5ccccc5)c(=O)c(CCC(=O)O)nn4c(=O)c23)CO1	-10%
CN(C(=O)CCN1C(=O)C(C)(C)Nc2ccccc21)c1ccccc1	13%
COc1ccc(OCC(O)COc2ccc(OC)cc2)cc1	5%
COc1ccccc1N1CCN(S(=O)(=O)c2ccc(-c3ccno3)cc2OC)CC1	-1%
CCO[C@H]1OC(C(=O)N2CCN(C)CC2)=C[C@@H](C)[C@@H]1CCCO	-5%
COc1cccc(Nc2ncc3ncc(=O)n(C4CC4)c3n2)c1	-21%
COc1ccc(NC(=O)C2CCC(CNS(=O)(=O)c3ccc(Br)s3)CC2)cc1OC (stereo not given)	?
CCOC(=O)CC1Sc2ccccc2NC1=S (stereo not given)	-16%
Cc1ccccc1NC(=O)c1ccccc1N(C)S(=O)(=O)c1ccccc1	22%
CCOc1ccccc1C1C(C(=O)Nc2ccccc2)=C(C)Nc2nc(-c3ccccc3)nn21 (stereo not given)	-6%
Cc1occc1-c1nnc(SCC(=O)c2ccc(F)cc2)n1Cc1ccco1	?
Cc1ccc(N(CC(=O)N2CCc3ccccc32)C2=NC(=O)CS2)cc1	7%
Cc1ccc(C(=O)CC2(O)C(=O)N(Cc3ccc4c(c3)OCO4)c3ccccc32)cc1 (stereo not given)	-3%
O=C(CSc1nnnn1C1CCCCC1)NCc1cccs1	8%
Cc1ccc(CN(C)c2nc(-c3cccnc3)nc3ccccc23)o1	-18%
NC(=O)Cc1ncc(C(F)(F)F)cc1Cl	-9%
CC(C)(C)OC(=O)NCCC(=O)N/N=C/c1cccc2cccnc12	5%
CCN(CC)S(=O)(=O)c1ccc(S(=O)(=O)N2CCN(CCC#N)CC2)cc1	-14%
CC(Sc1nc(O)c(-c2ccccc2)c(=O)[nH]1)C(=O)Nc1ccc(Cl)cc1 (stereo not given)	-5%
Cc1ccc(-c2nnc(Oc3cccc(C)c3)c3ccccc23)cc1	-3%
COc1cccc(CNS(=O)(=O)/C=C/c2ccc3c(c2)OCO3)c1	-9%
Cc1cc(C)nc(NC(=O)c2ccc(Br)cc2)n1	-1%
COCCN(CCOC)C(=O)c1cc2c(=O)n3ccccc3nc2s1	15%
COc1cc(Cl)cc2c1Sc1ccccc1/C2=C/CCN(C)C	-1%
CCOC(=O)CSc1nnc(-c2ccncc2)o1	2%

Other compounds:
SMILES	VDR inh
CCc1ccc(OC)c(S(=O)(=O)Nc2ccccc2C)c1	-15%
O=C(CC(=O)Nc1ccccc1F)Nc1ccccc1F	-2%
CC1CCc2nc3ccccc3c(C(=O)OCC(=O)NC3CCS(=O)(=O)C3)c2C1 (stereo not given)	6%
Cc1ccc(-c2csc3nc(C)n(N)c(=O)c23)cc1	-5%
c1ccn2c(SCc3ccc4c(c3)OCCO4)nnc2c1	7%
COc1cc(OC)c(Nc2c3c(nc4nc(-c5cccs5)nn24)CCCC3)cc1Cl	0%
COc1ccc(NC(=O)c2sc3nc(C)c(C(=O)Nc4ccc(C)cc4C)c(-c4cccs4)c3c2N)cc1	-2%
CC(C)(C)C(=O)Nc1ccc(S(=O)(=O)c2ccc(NC(=O)C(C)(C)C)cc2)cc1	26%
O=c1c2cn[nH]c2[nH]c(=S)n1-c1cccc2ccccc12	-20%
CCOc1ccc(NS(=O)(=O)c2ccc(C(=O)NCc3ccccn3)cc2)cc1	0%
C=CCNCCOCCOc1ccc(Cl)cc1C(C)(C)C	-10%
NS(=O)(=O)c1ccc(NC(=O)CCCC(=O)O)cc1	-10%
Cc1ccc(-c2nn(-c3cc(Cl)ccc3[N+](=O)[O-])c(=O)c3ccccc23)cc1	7%
C[C@H]1COC(=O)O1	3%
COc1ccc(CNC(=O)c2ccc3c(c2)N(C)CCS3)cc1	-15%
O=C(COC(=O)C1CC2C=CC1C2)Nc1cccc(S(=O)(=O)N2CCCCC2)c1 (stereo not given)	-17%
Cc1ccc(O)c(NC(=O)c2cc(-c3ccc(F)cc3)on2)c1	9%&-13%
Cc1csc(NC(=O)CSc2nc(=O)cc(N)n2-c2ccc(F)cc2)n1	-5%
O=S(=O)(c1ccc(OCC2CO2)cc1)c1ccc(OCC2CO2)cc1 (stereo not given)	-9%
CCOC(=O)CSC1=C(C#N)C(c2ccccc2OC)CC(=O)N1 (stereo not given)	-1%
CCc1ccc2nc(SCC(=O)Nc3ccccc3N3CCOCC3)c(C#N)cc2c1	-8%
COc1ccccc1N1CCN(S(=O)(=O)CCNC(=O)C2CCCC2)CC1	-12%
COCCNc1nnc(SCC(=O)Nc2sc3c(c2C(=O)c2ccccc2)CCCC3)s1	-12%
Oc1ccc(C(c2nnnn2CCc2ccccc2)N2CCN(c3nc4ccccc4s3)CC2)cc1 (stereo not given)	-4%
Oc1c(Br)cc(/C=N/n2c(-c3ccccc3)n[nH]c2=S)cc1Br	?

Of the compounds above, 3 contain a tert-butyl group.
SMILES	VDR inh
CC(C)(C)OC(=O)NCCC(=O)N/N=C/c1cccc2cccnc12	5%
CC(C)(C)C(=O)Nc1ccc(S(=O)(=O)c2ccc(NC(=O)C(C)(C)C)cc2)cc1	26%
C=CCNCCOCCOc1ccc(Cl)cc1C(C)(C)C	-10%

(list continues)
SMILES	VDR inh
C=CCn1c(SCC(=O)N2CCOCC2)nc2c([nH]c3ccccc32)c1=O	-3%
COc1ccc(-n2c(SCC(=O)Nc3cccc4ccccc34)nc(O)cc2=O)cc1	8%
CC(C)NC(=O)c1ccccc1NC(=O)CN(c1ccc2c(c1)OCO2)S(C)(=O)=O	-6%
Cc1c(C(=O)Nc2ccc(Oc3ccccc3)cc2)sc2nc3n(c(=O)c12)CCC3	18%
Cc1cccc(N(CC(=O)NC(C)C)C(=O)c2ccc(N3CCCC3)nc2)c1	12%
Cc1ccc(NC(=O)CSc2nnc(COc3ccccc3C)o2)cc1	-14%
CC(=O)c1ccc(NC(=O)c2nc(-c3ccccc3)n(-c3ccccc3Cl)n2)cc1	2%
Cc1ccccc1OCc1ccc(-c2nc(C#N)c(N3CCC(C(N)=O)CC3)o2)o1	3%
Cc1ccc(C(=O)c2cc([N+](=O)[O-])ccc2N2CCOCC2)c(C)c1	-17%
C=CC(C)(C)c1c2occc2c(O)c2ccc(=O)oc12	-11%
OCCN(Cc1ccccc1)CC(O)COc1ccc2c(c1)OCO2 (stereo not given)	-6%
CC[C@@H]1C=C(C(=O)O)[C@H](c2ccc(OC)c(OC)c2)N1S(=O)(=O)c1ccc(C)cc1	-9%
O=C(NCc1cccc(F)c1F)C1CCC(=O)N(C2CC2)C1 (stereo not given)	-10%
CC(NS(=O)(=O)OCC(Cl)(Cl)Cl)c1ccc(Br)cc1 (stereo not given)	-7%
Cc1[nH]c(=S)[nH]c(=O)c1Cc1ccc(OCC(C)C)cc1	-6%
CC(Sc1nc2ccccc2c(=O)n1C)C(=O)Nc1ccc2c(c1)OCCO2 (stereo not given)	-8%
COC(=O)c1cc(NC(=O)c2cccs2)ccc1N1CCOCC1	?
COc1c(-c2ccc(O)c(O)c2)oc2cc(O)cc(O)c2c1=O	-7%
COc1ccc(C2Oc3nc(SC)nnc3-c3ccccc3N2C(C)=O)cc1 (stereo not given)	-7%
Cc1c(Cl)cccc1NC(=O)CN1C(=O)COc2ccc(S(=O)(=O)N3CCCCCC3)cc21	13%
COc1ccc(-n2nnnc2SCC(=O)N2CCOCC2)cc1	-10%
CSc1ccc2c(c1)C(N1CCN(C)CC1)Cc1ccc(F)cc1S2 (stereo not given)	-20%
C1COCCNCCOCCOCCN1	-4%
Cc1ccc2onc(CC(=O)N3CCN(c4ccccc4F)CC3)c2c1	13%
O=C(COC(=O)c1ccccc1Br)NCCc1ccc(F)cc1	-11%

Laid out differently: results already given
| SMILES | VDR inh |
| --- | --- |
| C=CCn1c(SCC(=O)N2CCOCC2)nc2c([nH]c3ccccc32)c1=O | -3% |
| COc1ccc(C2Oc3nc(SC)nnc3-c3ccccc3N2C(C)=O)cc1 (stereo not given) | -7% |
| Cc1c(Cl)cccc1NC(=O)CN1C(=O)COc2ccc(S(=O)(=O)N3CCCCCC3)cc21 | 13% |
| CC(Sc1nc2ccccc2c(=O)n1C)C(=O)Nc1ccc2c(c1)OCCO2 (stereo not given) | -8% |

Following part:
SMILES	VDR inh
O=C(O)c1ccc(N2CCCCCC2)c(N2C(=O)c3ccccc3C2=O)c1	5%
Cc1cc(C)c(S(=O)(=O)Nc2ccc(OCC(=O)O)cc2)c(C)c1	-12%
C=CCC(C)(O)C(=O)OCC (stereo not given)	1%
CC(C)(C)c1ccc(C(=O)NCCCN2CCN(CCCNC(=O)c3ccc(C(C)(C)C)cc3)CC2)cc1	-12%
CCc1cccc(NC(=O)Cn2ncc3c([nH]c4ccc(C)cc43)c2=O)c1	16%
COc1ccc(OC)c(/C=N/NC(=O)CCc2ccc(O)c(O)c2)c1	-27%
CN1C(=O)c2cccc3c(S(=O)(=O)NCCc4ccccc4)ccc1c23	9%
CC12CC3CC1C(C(=O)O2)C3C(=O)O (stereo not given)	-11%
CC1Cc2nc(SCC(=O)NCC3CCCO3)n(C)c(=O)c2S1 (stereo not given)	-3%
CN(C(=O)CSc1nccc(=O)[nH]1)C1CCCCC1	26%
Cc1ccc(Cn2ccnc2SCC(=O)Nc2ccccc2C(F)(F)F)cc1	15%
O=C(N1CCOCC1)N(CCN1CCOCC1)Cc1cccc2ccccc12	-17%
Cc1c(C(=O)Nc2ccccc2)sc2nc(-c3ccccc3)cn12	-17%
NS(=O)(=O)c1ccc(NC(=O)C2CCCN(S(=O)(=O)c3ccc(F)cc3)C2)cc1 (stereo not given)	-5%
C[C@@H]1C(=O)OC2C[C@@]34[C@H]5C[C@@H](C(C)(C)C)[C@@]36C(O)C(=O)O[C@H]6O[C@@]4(C(=O)O5)[C@]21O (stereo not given in full)	9%
CCc1cccc2c(C(=O)CSc3nncn3-c3ccc(OC)cc3)c[nH]c12	-11%
COC(=O)c1ccc2c(c1)c(-c1ccccc1)c(-c1ccccc1)n2C	-5%
O=S(=O)(c1ccc2ccccc2c1)N1CCN(c2ccc(O)cc2)CC1	2%
CC(C)(C)C(=O)CSc1ncnc2sc3c(c12)CCC3	-1%
Cc1nn(C2CCS(=O)(=O)C2)c(Cl)c1/C=C/C(=O)OCC(=O)N(C)C (stereo not given)	-1%
Cc1nc(-c2ccc(Cl)cc2)sc1CCNC(=O)c1ccc(C(F)(F)F)cc1	3%
CC1Cc2cc(/C(O)=C3/C(=O)C(=O)N(CCCN(C)C)C3c3ccncc3)ccc2O1 (stereo not given)	13%
COc1ccc(OC)c(NC(=O)c2ccc3c(c2)C(=O)N(c2ccc(OC(C)=O)cc2)C3=O)c1	4%
CSc1nc2nc3c(c(=O)n2[nH]1)CCCC3	14%
Cc1ccc(NC(=O)C(C)OC(=O)Cc2c[nH]c3ccccc23)cc1S(=O)(=O)N1CCOCC1 (stereo not given)	-14%

Next part.
SMILES	VDR inh
CCOc1ccc(NC(=S)N(CCc2c(C)[nH]c3ccc(C)cc23)Cc2cccnc2)cc1	-5%
Cc1c(NC(=O)C(C)OC(=O)c2cccc(S(=O)(=O)N3CCOCC3)c2)c(=O)n(-c2ccccc2)n1C (stereo not given)	-20%
CCCCc1cc(=O)oc2cc(C)cc(OCC(=O)NCc3ccncc3)c12	-10%
CCC12CN(C(=O)c3ccc(OC)cc3)CC(CC)(CN(C(=O)c3ccc(OC)cc3)C1)C2=O	-2%
COc1ccccc1N1CCN(C(c2ccc(N(C)C)cc2)c2nnnn2CCc2ccccc2)CC1 (stereo not given)	19%
COc1ccc(C(=O)C[n+]2cccc3cc(OC)ccc32)cc1	-5%
Cc1cc(C(=O)OCC(=O)NCCN2C(=O)CSC2=O)ccc1[N+](=O)[O-]	7%
Cc1ccc(OCCNC(=O)/C=C/c2ccccc2)cc1C	14%
Cc1ccccc1NC(=O)Nc1nnc(CC(=O)NCc2ccccc2)s1	-5%
COc1cccc(NC(=O)CSc2nnc(Cn3nnc4ccccc43)n2C)c1	-14%
Cc1ccc(C(C)C)cc1OCC(=O)NNC(=O)Nc1ccccc1	12%
COc1cc(C(=S)N2CCCC2)ccc1OCc1ccc(C)cc1	15%
COC(=O)Cn1c(=NC(=O)c2ccc(OC)cc2)sc2cc(OC)ccc21	-14%
O=C(c1cccs1)N(Cc1ccco1)Cc1cc2ccccc2[nH]c1=O	-24%
COc1ccc(CN2[C@@H](CC(C)=O)c3ccc(/C=C/C(C)=O)cc3S2(=O)=O)cc1	79µM*
COc1cccc(CN(C)C(=O)CCN=C2NS(=O)(=O)c3ccccc32)c1	6%
CCC1(C)Cc2c(sc3c2c(=O)n(C)c2nnc(SCC(=O)c4ccccc4)n32)CO1 (stereo not given)	-2%
COc1ccc(Cl)cc1C(=O)NNC(=O)C1CCCO1 (stereo not given)	-8%
NS(=O)(=O)c1ccc(N2C(=O)C3C4CC(C(Br)C4Br)C3C2=O)cc1 (stereo not given)	0%
NC(=O)C1CCCN(S(=O)(=O)c2ccc3ccccc3c2)C1 (stereo not given)	11%

Reprinted at random: 5 records from the list
SMILES	VDR inh
COC(=O)Cn1c(=NC(=O)c2ccc(OC)cc2)sc2cc(OC)ccc21	-14%
COc1ccc(CN2[C@@H](CC(C)=O)c3ccc(/C=C/C(C)=O)cc3S2(=O)=O)cc1	79µM*
COc1ccc(C(=O)C[n+]2cccc3cc(OC)ccc32)cc1	-5%
COc1cc(C(=S)N2CCCC2)ccc1OCc1ccc(C)cc1	15%
CCC1(C)Cc2c(sc3c2c(=O)n(C)c2nnc(SCC(=O)c4ccccc4)n32)CO1 (stereo not given)	-2%

Exported as comma-separated lines: entries from further up
SMILES,VDR inh
COc1cccc(NC(=O)CSc2nnc(Cn3nnc4ccccc43)n2C)c1,-14%
COc1cccc(CN(C)C(=O)CCN=C2NS(=O)(=O)c3ccccc32)c1,6%

Screening data (PubChem)
